# CSC inhib – cancer stem cell viability inhibitors, primary screen, luminescence; cancer stem cell-like cells viability; AID 2717, 2010; 1.1% of 300,000 active; inhibition, % at 7.5 µM;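 active = mean at 75% or more and at least half the replicates too; inconclusive = mean and replicates disagree; tested in HMLE shEcad cells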;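 also: 0% = median of negative and 100% = median of positive control wells; the first replicate is given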
# MT1-MMP act inh – blockers of MT1-MMP proenzyme processing, primary screen, HT1080 RFP-PRO-GFP cells, GFP/RFP fluorescence; Matrix metalloproteinase-14 (Homo sapiens), P50281; GFP/RFP ratio fluorescence, overnight; percent of plate control window, DMSO zero; GFP/RFP ratio change, % at 20 µM; 0.061% of 360,000 active; AID 651647, 2012;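 active = GFP/RFP ratio change of at least 30% with cell ATP level not reduced by more than half and red fluorescence within 50% of control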; also: strong numbers were not always called active
#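 system = RFP-PRO-GFP reporter HT1080 cells | dosing = 20 µM single dose, 1% DMSO | timing = overnight cell settling, then overnight compound exposure, 37 °C, 5% CO2 | read-out basis = GFP/RFP fluorescence ratio | controls = DMSO and RFP-L50D-GFP cell wells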
# HIV Env fusion – inhibitors of HIV-1 Env-driven cell-cell fusion, primary screen, HeLa-JRFL effector, CEM21 target cells, luciferase; AID 651610, 2012; inhibition, % at 12.3 µM; 1.1% of 360,000 active;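 active = mean replicate inhibition score of at least 50 and every replicate individually at or above 50; inconclusive = only one of the two criteria met; inactive = mean below 50 and not all replicates reaching 50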;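 also: 0% = plate neutral controls and 100% = maraviroc near 300 nM; one replicate is shown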
# eIF4H inh – human eIF4H binding inhibitors, primary screen, translation initiation inhibitor project, biochemical, uHTS, fluorescence polarization; Eukaryotic translation initiation factor 4H (Homo sapiens), Q15056; 0.94% of 290,000 active; eIF4H fluorescence polarization binding assay; inhibition, % at 35 µM;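 active = 50% or more with normal probe brightness, or confirmed in later tests; inconclusive = above 50% with abnormal brightness, or retests that disagree; inactive = below 50% or failed in later tests; about a fifth of its hits are not listed in these tables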;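 also: calls also rest on retests at 20 µM and on dose response follow-up; 0% = protein and probe with vehicle and 100% = probe without protein; strong numbers were not always called active; many hits fall short of the cut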
# Rce1 inh – yeast Rce1p protease inhibitors, primary screen, biochemical, fluorescence, cell-free homogeneous; CAAX prenyl protease 2 (Saccharomyces cerevisiae (strain ATCC 204508 / S288c)), Q03530; yeast membranes, quenched prenylated peptide cleavage fluorescence; calls only; 0.27% of 290,000 active; AID 2563, 2010;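 active = fall in fluorescence gain of 50% or more versus controls, with final raw signal at or below 3038400; inconclusive = same 50% fall but final raw signal above 3038400; inactive = fall in fluorescence gain under 50%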;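 also: plate controls were neutral control wells for no effect and wells lacking membranes for full effect; tested at 10 µM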
# PABP FP inh – PABP poly(A) RNA binding inhibitors, primary screen, biochemical, fluorescence polarization, uHTS. AID 2014, 2009. 1% of 290,000 active. inhibition, % at 35 µM. Polyadenylate-binding protein 1 (Homo sapiens), P11940;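 active = 50% or more with normal probe brightness, or confirmed in later tests; inconclusive = above 50% with abnormal brightness, or retests that disagree; inactive = below 50% or failed in later tests; about a fifth of its hits are not listed in these tables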;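 also: calls also rest on retests at 20 µM and on dose response follow-up; controls were probe without protein and protein plus probe with vehicle; some compounds called inactive have numbers as strong as hits; many hits fall short of the cut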
# Target sequence (P11940 whole entry, looked up): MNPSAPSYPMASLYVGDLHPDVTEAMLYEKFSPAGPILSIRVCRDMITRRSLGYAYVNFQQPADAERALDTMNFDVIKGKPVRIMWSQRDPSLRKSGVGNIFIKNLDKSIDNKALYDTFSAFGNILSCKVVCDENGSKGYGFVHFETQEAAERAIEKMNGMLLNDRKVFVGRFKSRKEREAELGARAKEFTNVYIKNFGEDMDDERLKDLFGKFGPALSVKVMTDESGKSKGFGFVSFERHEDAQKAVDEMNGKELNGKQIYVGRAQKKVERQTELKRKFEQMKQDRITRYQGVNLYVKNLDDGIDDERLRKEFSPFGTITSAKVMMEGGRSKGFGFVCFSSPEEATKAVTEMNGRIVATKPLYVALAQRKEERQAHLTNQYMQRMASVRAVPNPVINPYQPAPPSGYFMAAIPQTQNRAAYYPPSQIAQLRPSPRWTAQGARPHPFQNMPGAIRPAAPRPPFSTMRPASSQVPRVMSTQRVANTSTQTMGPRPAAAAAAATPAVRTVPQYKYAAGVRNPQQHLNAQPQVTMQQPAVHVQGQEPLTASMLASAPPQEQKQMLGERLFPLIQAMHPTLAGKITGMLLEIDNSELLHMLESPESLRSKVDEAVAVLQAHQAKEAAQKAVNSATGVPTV
# Yeast UUG start – modulators of yeast start codon fidelity, primary screen, whole organism, S. cerevisiae, single point, plate reader; S. cerevisiae UUG-firefly luciferase reporter, luminescence/redox ratio; activity score, % at 18.7 µM; 0.13% of 350,000 active;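 active = replicate mean at a twofold rise or more, about +100% in these data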;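 also: firefly luciferase made from a UUG start codon reports start codon fidelity; reporter light over untreated wells divided by growth signal over untreated wells; some hits fall short of that in this replicate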
# eIF4H inh retest – second read-out of eIF4H inh, no call of its own (marks repeat the call); inhibition, %; compound at 20 µM; confirmation average;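 mean of two retest wells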
# PABP FP inh retest – recorded beside PABP FP inh, whose call it bears; inhibition, %; compound at 20 µM; confirmation repeats;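 mean of two retest wells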
# MT1-MMP act inh RFP – second read-out of MT1-MMP act inh, no call of its own (marks repeat the call); RFP signal change, %; measured here: RFP expression control read;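 0 = vehicle wells; hits needed this value within 50% of zero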
# * = called active by the depositor; i = inactive; ? = inconclusive; nt = not tested or not shown; & = joins results of further samples.
# Start of the data: the first 6 records as a preview:
SMILES,CSC inhib,MT1-MMP act inh,MT1-MMP act inh RFP,HIV Env fusion,eIF4H inh,Rce1 inh,PABP FP inh,Yeast UUG start,others
CC1(C(=O)NS(=O)(=O)Cc2ccccc2)CCN1C(=O)Cc1cc(F)ccc1F (stereo not given),nt,-1,-1,-9,nt,nt,nt,-11,
Cc1ccc2c(C)c(C(=O)N3CCCCC3CO)oc2c1C (stereo not given),nt,-1,-1,-8,-12,i,-6,-7,
COc1cc(CC(=O)OCC(=O)Nc2cc([N+](=O)[O-])ccc2F)cc(OC)c1OC,-8,-2,1,7,1,i,18,nt,
CC(C)C(=O)NNS(=O)(=O)c1ccccc1[N+](=O)[O-],-1,1,-3,12,-11,i,-1,-9,
CCOc1ccccc1NC(=O)C1CCN(S(=O)(=O)c2ccc(OC)c(OC)c2)CC1,1,-2,-3,nt,8,i,2,nt,
CN(C)/C=N/C(=S)Nc1ccc(Br)cc1F,-6,7,7,nt,-2,i,-5,-13,

# This part in full, from the start:
SMILES,CSC inhib,MT1-MMP act inh,MT1-MMP act inh RFP,HIV Env fusion,eIF4H inh,Rce1 inh,PABP FP inh,Yeast UUG start,others
CC1(C(=O)NS(=O)(=O)Cc2ccccc2)CCN1C(=O)Cc1cc(F)ccc1F (stereo not given),nt,-1,-1,-9,nt,nt,nt,-11,
Cc1ccc2c(C)c(C(=O)N3CCCCC3CO)oc2c1C (stereo not given),nt,-1,-1,-8,-12,i,-6,-7,
COc1cc(CC(=O)OCC(=O)Nc2cc([N+](=O)[O-])ccc2F)cc(OC)c1OC,-8,-2,1,7,1,i,18,nt,
CC(C)C(=O)NNS(=O)(=O)c1ccccc1[N+](=O)[O-],-1,1,-3,12,-11,i,-1,-9,
CCOc1ccccc1NC(=O)C1CCN(S(=O)(=O)c2ccc(OC)c(OC)c2)CC1,1,-2,-3,nt,8,i,2,nt,
CN(C)/C=N/C(=S)Nc1ccc(Br)cc1F,-6,7,7,nt,-2,i,-5,-13,
O=C(NCC1CCCO1)c1ccc2c(c1)C(=O)N(c1cccc([N+](=O)[O-])c1)C2=O (stereo not given),nt,-2,3,-1,-9,i,2,-6,
CCN(CC)C(=O)Cn1cc(S(=O)(=O)CC(=O)NCCc2ccccc2)c2ccccc21,-23,1,3,5,15,i,6,-1,
CCOc1ccccc1/C=N/NC(=O)c1cccc(S(=O)(=O)N(CC)CC)c1,-8,-4,-5,3,6,i,78,13,eIF4H inh retest=2;PABP FP inh retest=17
COc1cc(/C=N/N=C(/C(=O)c2ccccc2)c2ccccc2)cc(OC)c1O,20,4,-2,14,2,i,-7,3,
Cc1cc(C(=O)COc2ccccc2C#N)c(C)n1C1CC1,-4,1,0,24,nt,i,nt,-11,
CC(=O)Nc1ccc(S(=O)(=O)N(C)c2ccc(OCC(=O)NCCc3ccccc3F)cc2)cc1,nt,-5,-11,4,nt,nt,nt,-15,
O=C(CN1C(=O)NC2(CCCC2)C1=O)NNC(=O)c1ccc(Cl)cc1,-13,0,2,-4,nt,nt,nt,-13,
COc1ccccc1CN(C)C(=O)CNC(=O)c1cccc(Cl)c1,4,3,-1,10,-2,i,-4,2,
Cc1cc2ccccn2c1C(=O)Nc1ccc(Cl)cc1,15,-5,-5,-28,-7,i,12,nt,
O=C(NNC(=O)c1cccs1)c1ccc(Cl)nc1,-18,4,8,-27,nt,i,nt,-6,
COCCCNC(=O)c1ccc2c3c(onc13)-c1ccccc1C2=O,23,24,25,nt,?,i,?,-21,
Cc1ccc(C(=O)O/N=C(\N)c2ccccc2)c(Cl)c1,-8,0,3,-27,-1,i,-2,-80,
Cc1ccc(S(=O)(=O)NCCN2CCOCC2)cc1,-3,0,4,-15,2,i,7,-13,
O=C(c1cc2ccccc2c(=O)o1)N1CCc2ccccc2C1,-2,2,3,nt,-6,i,8,-2,
COc1ccc(OC)c(/C=N/NC(=O)c2c(C)nc3ccc(C)cn23)c1,-2,4,6,14,-18,i,8,-9,
CCc1ncc(CN2CCCC(C(=O)Nc3ccc(-c4cscn4)cc3)C2)cn1 (stereo not given),-11,0,1,-9,nt,i,nt,-15,
CC12CCC(C(=O)Nc3ccccc3)(C(Br)C1=O)C2(C)C (stereo not given),0,0,5,-12,4,i,7,nt,
Cc1ccc(C(=O)Nc2cccc(C(F)(F)F)c2)cc1NC(=O)c1nccnc1N,9,3&5,6&2,-8&35,3,i,4,-3&-10,
CCC(CO)Oc1cc(NC(=O)c2ccccc2N)c2ncn(C(C)C)c2c1 (stereo not given),-18,0,3,4,nt,nt,nt,-20,
Cc1ccc(NC(=O)CCNC(=O)c2ccc(Cl)cc2)cc1F,1,5,7,-7,4,i,-8,nt,
CCc1nc(NCc2cccnc2)c2oc3ccccc3c2n1,-13,1,-7,31,-8,i,-5,-22,
O=C(c1ccc(Cl)c(S(=O)(=O)N2CCCC2)c1)N1CCCCC1,0,-3,0,0,-8,i,1,-10,
COC(=O)/C(=C1/Oc2ccc(C(C)(C)C)cc2S1)C(F)(F)F,5,2,-3,-47,-2,nt,-1,nt,
CC1(C(=O)O)CCCN1C(=O)c1cccc2ccccc12 (stereo not given),nt,4,5,33,nt,nt,nt,-10,
CCC(C)(C)NC(=O)c1cc(OC)c(OC)cc1[N+](=O)[O-],-17,0,2,nt,-12,i,-3,-5,
O=C(CSc1nc2c(c(=O)n1-c1ccc(Cl)cc1)SCC2)N1CCOCC1,0,-1,1,10,-20,i,-13,-16,
Cc1cc(C)c(C(=O)OCC(=O)NC(=O)c2ccccc2)c(C)c1,-14,9,3,3,nt,i,nt,13,
O=C(CN1C(=O)/C(=C\c2ccccc2F)SC1=S)Nc1nc2ccccc2s1,-2,0,4,-8,48,i,-2,nt,
CN(Cc1ccccc1)C(=O)COc1ccccc1Cl,-4,1,1,12,1,i,-4,-4,
COc1ccc(SC[C@H](CC(C)C)N2CCN(CCc3ccccc3)CCC2=O)cc1,19,-3,-5,-17,-9,i,-8,-16,
CC(=O)NC1(c2ccccc2)CCN(CC(=O)N2CCC(C)CC2)CC1,-3,1,3,-9,0,i,-7,nt,
CC1(C)CC(=O)C=C(Nc2ccc(F)cc2)C1,-2,3,2,nt,1,i,11,-18,
COc1ccc(C2NC(C(=O)O)CS2)cc1COCC(F)(F)F (stereo not given),-11,nt,nt,-50,nt,i,nt,nt,
O=C(Nc1ccc2c(c1)OCO2)c1c[nH]c(=O)n(-c2ccc(F)cc2)c1=O,-13,4,3,-14,25,i,7,-11,
CCn1c(CSCc2ccc(C)cc2)nnc1SCC(=O)N1CCN(c2ccccc2)CC1,-5,3,0,nt,-9,i,-3,3,
CN(C)C=NCCn1c(N2CCOCC2)nc2c1c(=O)n(C)c(=O)n2C,6,4,10,nt,-2,i,-9,-13,
CC(CN1CCCCC1)OC(=O)CCc1ccccc1 (stereo not given),6,-6,-1,-8,11,i,0,10,
CCCn1c(-c2cccnc2Cl)nc2cc(Cl)c(Cl)cc21,-14,-2,1,nt,-11,i,4,-12,
NC(=O)C1CCN(C(=O)c2ccc(-c3ccccc3)cc2)CC1,12,4,6,nt,-12,i,3,-3,

# An excerpt from above in order of SMILES length, smallest number first:
SMILES,CSC inhib,MT1-MMP act inh,MT1-MMP act inh RFP,HIV Env fusion,eIF4H inh,Rce1 inh,PABP FP inh,Yeast UUG start,others
CC(CN1CCCCC1)OC(=O)CCc1ccccc1 (stereo not given),6,-6,-1,-8,11,i,0,10,
CN(Cc1ccccc1)C(=O)COc1ccccc1Cl,-4,1,1,12,1,i,-4,-4,
CCCn1c(-c2cccnc2Cl)nc2cc(Cl)c(Cl)cc21,-14,-2,1,nt,-11,i,4,-12,
CC(=O)NC1(c2ccccc2)CCN(CC(=O)N2CCC(C)CC2)CC1,-3,1,3,-9,0,i,-7,nt,
CN(C)C=NCCn1c(N2CCOCC2)nc2c1c(=O)n(C)c(=O)n2C,6,4,10,nt,-2,i,-9,-13,
O=C(CN1C(=O)/C(=C\c2ccccc2F)SC1=S)Nc1nc2ccccc2s1,-2,0,4,-8,48,i,-2,nt,
COc1ccc(SC[C@H](CC(C)C)N2CCN(CCc3ccccc3)CCC2=O)cc1,19,-3,-5,-17,-9,i,-8,-16,

# Next records follow:
SMILES,CSC inhib,MT1-MMP act inh,MT1-MMP act inh RFP,HIV Env fusion,eIF4H inh,Rce1 inh,PABP FP inh,Yeast UUG start,others
Cc1cccc(N2CCN(C(=O)COc3cc(=O)n(C)c4ccccc34)CC2)c1C,-13,6,3,16,-7,i,-3,-17,
CCN(CC)CCN(Cc1cc2ccc(C)cc2[nH]c1=O)C(=S)Nc1ccccc1C(=O)OC,0,8,4,2,-5,i,0,-5,
COc1ccccc1CNC(=O)CCC(=O)N1Cc2cccc(OC)c2Oc2ncccc21,-12,-2,-1,-3,-12,i,11,-18,
COc1ccc(CCNC(=O)C(C)OC(=O)c2nsc(Cl)c2Cl)cc1OC (stereo not given),-23,-3,-3,4,-9,i,-10,4,
N/C(=N\OC(=O)Cc1ccc(-c2ccccc2)cc1)c1ccncc1,18,-4,-4,-24,-6,i,-11,nt,
CCOc1ccccc1C(=O)OCC(=O)Nc1nnc(-c2ccccc2)o1,0,-1,0,7,nt,i,nt,-31,
O=C1CC2(CCCCC2)Oc2ccccc21,-10,1,3,-16,nt,i,nt,-9,
COc1cccc(CNC(=O)c2nnn(CC(=O)Nc3cc(Cl)ccc3C)c2N)c1,2,-3,-1,-1,-2,i,-10,-14,
CC1(C)Cc2ccccc2-c2nc3n(c(=O)c21)CCCS3,-4,0,-8,0,-8,i,-3,nt,
Cc1nn(Cc2ccc(F)cc2)c(C)c1NC(=O)c1cnn2c1NC(c1cccs1)CC2C(F)(F)F (stereo not given),-6,-2,-1,-47,-1,i,-3,nt,
COc1ccc(S(=O)(=O)Nc2cc3c4c(c2)CCC(=O)N4CCC3)cc1,nt,4,-10,4,nt,i,nt,3,
Cc1ccccc1Nc1nnc(SCC(=O)NCc2ccco2)s1,-18,3,6,nt,-6,nt,-7,-16,
CCN1C(=O)C(CC(=O)Nc2ccc(OC)cc2)N(Cc2ccc3c(c2)OCO3)C1=S (stereo not given),25,1,1,27,-4,i,13,nt,
Cc1ccc(NC(=O)CN2C(=O)c3ccccc3S2(=O)=O)c(C)c1,-15,0,2,12,-10,i,7,-5,
Cc1ccc(S(=O)(=O)Nc2c(NC3CCCCC3)c3ccccc3oc2=O)cc1C,-13,-3,-1,17,-5,i,0,3,
COc1ccccc1-n1c(SCC(=O)NC2CCS(=O)(=O)C2)nc2ccccc2c1=O (stereo not given),3,2,1,12,nt,nt,nt,-11,
CCOc1ccc(N(CC(=O)Nc2cccc(Cl)c2)S(=O)(=O)c2c(C)noc2C)cc1,22,-7,-15,-4,1,i,1,-12,

# Screening data (PubChem)

# Not a hit list, and some 2.9% of all compounds hit somewhere here.
